RanGTP-Imp inh: disruptors of Ran-importin-beta complex formation – biochemical, FRET, CFP-Ran, YFP-importin-beta, homogeneous, primary screen | cell-free CFP-Ran/YFP-importin-beta FRET ratio | inhibition, % (test concentration not listed) | hit rate 1.1% among 300,000 | AID 2216;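 active = most replicates above 15%; inconclusive = exactly half above 15%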;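 note: 0% = DMSO wells and 100% = Ran loaded with GDP instead of GTP; wells of about 40 µL received 100 nL stock; the first replicate is given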
Ecoli rRNA inh: inhibits bacterial ribosomal RNA function over humanized ribosomes. E. coli WT GFP vs humanized-ribosome RFP mutants, fluorescence, 24 h; stronger effect = lower value; DMSO median 0, no signal -100. GFP signal change (wild-type ribosome), % (no concentration beside the values). hit rate 1.6% among 350,000;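 active = significant combined selectivity score with lowered wild-type GFP, culture density cut under 30%, mutant RFP and density less affected; inactive = any of these conditions unmet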; note: one replicate is shown; some compounds called inactive have numbers as strong as hits
AF4-AF9 inh: inhibitors of human MLL-AF4/AF9 interaction; P42568; AlphaScreen, biotin-AF4 peptide binding to FLAG-AF9; inhibition, % at 10 µM; hit rate 0.47% among 350,000; AID 651704;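 active = every replicate reaching a set inhibition limit, whatever the replicate mean, cut at about 25% in these data; inconclusive = mean inhibition reaches that limit but some replicates miss it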;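 note: 0% = plate neutral control median and 100% = total signal loss; the record names both 10 and 1 µM as test concentration; the first replicate is given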
Target sequence (P42568 whole entry, looked up): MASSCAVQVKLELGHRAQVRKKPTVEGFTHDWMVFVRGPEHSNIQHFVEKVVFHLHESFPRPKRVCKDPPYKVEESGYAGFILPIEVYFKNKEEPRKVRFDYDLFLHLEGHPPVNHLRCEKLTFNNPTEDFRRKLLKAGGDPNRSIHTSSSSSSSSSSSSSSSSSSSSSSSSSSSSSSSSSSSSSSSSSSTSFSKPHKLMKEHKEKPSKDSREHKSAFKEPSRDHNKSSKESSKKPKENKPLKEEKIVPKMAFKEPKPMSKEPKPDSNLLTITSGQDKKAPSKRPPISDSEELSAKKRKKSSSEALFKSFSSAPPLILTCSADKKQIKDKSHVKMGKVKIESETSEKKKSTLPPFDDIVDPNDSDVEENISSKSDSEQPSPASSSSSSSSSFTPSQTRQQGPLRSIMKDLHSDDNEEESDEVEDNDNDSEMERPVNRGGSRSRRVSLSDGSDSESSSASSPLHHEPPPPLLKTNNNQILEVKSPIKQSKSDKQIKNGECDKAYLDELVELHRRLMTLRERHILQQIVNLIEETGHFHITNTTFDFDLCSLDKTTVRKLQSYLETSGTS
Bfl-1 A1 inh: inhibitors of the anti-apoptotic protein A1, read as caspase activation; caspase activation, % (concentration not given with the values); hit rate 0.066% among 330,000; MEF A1-2A-BIM cells, Caspase-Glo 3/7 luminescence, 3 h; percent of clofoctol response, vehicle zero;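 active = over half of replicate activation scores above 10%, or exactly half above 10 with the replicate mean above 10; inconclusive = replicate mean below 10 yet half the replicates above 10; inactive = over half of replicates below 10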;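 note: wells of about 30 µL received 50 nL stock; many hits fall short of the cut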
T cruzi repl: blocks replication of Trypanosoma cruzi; AID 1885; inhibition, % (no concentration beside the values); hit rate 1.4% among 300,000; T. cruzi beta-gal in NIH3T3, luminescence, 90 h;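 active = mean inhibition across valid replicates above about 55%, limit read from the data; inconclusive = mean below that limit but half or more replicates reach it; inactive = mean below it, under half of replicates reach it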;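 note: signal also drops with host cell toxicity which is not excluded here; 0% = plate median of DMSO wells and 100% = zero luminescence signal; higher percent means less beta-gal luminescence so fewer parasites; stock transfer was 50 nL into about 50 µL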
Calb FLC: C. albicans growth modulation with fluconazole. C. albicans CaCi-2 (fluconazole-resistant clinical isolate) + fluconazole, Alamar Blue growth, 48 h. growth inhibition, % (test concentration not listed). hit rate 0.57% among 300,000;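 active = most replicates above 75%; inconclusive = exactly half above 75%; inactive = most below 75%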;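 note: all wells also contain fluconazole at 8 µg/ml as a sub-toxic cotreatment; 0% = median of DMSO wells and 100% = median of geldanamycin control wells; wells of about 8 µL received 7.5 nL stock; the first replicate is given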
Vif TR-FRET: HIV-1 Vif–A3G interaction blockers – biochemical, TR-FRET, GST-Vif 1-94, biotin-A3G peptide, dose response retest, primary screen (AID 1117319). TR-FRET GST-Vif / biotin-A3G peptide binding; higher % means a stronger effect; test concentration not given here; strong numbers were not always called active. inhibition, %, or IC50 in µM where a hit was titrated. hit rate 0.57% among 260,000;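 active = above the screen mean plus three standard deviations and confirmed in dose response; inconclusive = results disagree or hit not tested in dose response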;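 note: Vif residues 1-94 fused to GST binding biotinylated APOBEC3G peptide 110-148; 0% = full assay without inhibitor and 100% = GST in place of GST-Vif; retest series ran down from 100 µM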
Beta apoptosis: blocks beta cell apoptosis; INS-1E cytokine-induced death, ATP luminescence, 48 h; percent of positive-control rescue, neutral wells zero; protection from apoptosis, % (concentration not given with the values); hit rate 0.8% among 300,000; AID 435005;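 active = all replicates at 75% or more, or half of them and the mean; inconclusive = half reach 75% but not the mean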;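 note: 0% = cytokine-treated negative control wells and 100% = positive control rescue; higher means more ATP so stronger rescue from cytokine killing; wells of about 40 µL received 100 nL stock; the first replicate is given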
Ecoli rRNA inh OD600: recorded beside Ecoli rRNA inh, whose call it bears; OD600 change, %; measured here: OD600 growth;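 optical density of the mix in the first replicate; 0 = DMSO median and -100 = no signal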
Ecoli rRNA inh RFP: further read-out of Ecoli rRNA inh, marked with its call; RFP signal change, %; measured here: RFP humanized mutant strains;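 first replicate; 0 = DMSO median and -100 = no signal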
Numbers without * were called inactive; ? = inconclusive; / = not tested or not shown; & = joins results of further samples.

SMILES	RanGTP-Imp inh	Ecoli rRNA inh	Ecoli rRNA inh OD600	Ecoli rRNA inh RFP	AF4-AF9 inh	Bfl-1 A1 inh	T cruzi repl	Calb FLC	Vif TR-FRET	Beta apoptosis
CCN(Cc1ccccc1)S(=O)(=O)c1ccc(C(=O)N(CCCN(C)C)c2nc3cc(C)cc(C)c3s2)cc1	?	-56	-77	-12	2.2	-0.9	45	4	/	/
CCC/C(O)=C1\C(=O)CC(c2ccccc2)CC1=NC(C)C(=O)O (stereo unspecified)	4.0	19	9	1.9	1.1	0.1	-13	-1	-10%	-8
CCN(C(=O)CSc1n[nH]c(-c2cccs2)n1)C1CCS(=O)(=O)C1 (stereo unspecified)	0.8	16	11	2.2	-2.3	0.4	-2	-2	17%	-2
COC(=O)CC(c1ccccc1F)N1Cc2ccccc2C1=O (stereo unspecified)	2.9	-3	-3	2.3	5.5	0.8	5	-12	5%	-4
O=S(=O)(c1ccsc1)N1CC=C(c2ccccc2)CC1	-2.9	4	-6	0.5	-2.1	0.0	15	-2	/	-5
COc1ccc(N/C=C/C(=O)c2ccc(Oc3ncccn3)cc2)cc1	-0.6	/	/	/	/	0.1	0	1	31%	2
CCOC(=O)Cc1csc(NC(=O)C2C3C=CC(C3)C2C(=O)O)n1 (stereo unspecified)	0.2	/	/	/	/	-0.2	/	-2	22%	-6
CC(=O)Nc1ccc(Oc2ccc3c(c2)C(=O)NC3=O)cc1	1.1	5	5	1.4	-3.4	0.1	-2	1	/	5
O=C(NC1CCCCC1)c1cccc(Cn2cc(Cl)cn2)c1	-0.5	/	/	/	/	1.3	-1	14	?	/
CCC(C)NC(=O)CSc1nc2ccccc2c(=O)n1Cc1ccc(OC)cc1 (stereo unspecified)	1.7	/	/	/	/	-0.4	2	-15	-5%	-3
CCOc1ccc(-c2nc(CSCC(=O)NCc3ccco3)c(C)o2)cc1	2.4	/	/	/	/	-0.2	-19	0	-10%&-8%	-4
CCn1c(C)nc2cc(C(=O)NNC(=S)Nc3ccc(C)cc3)ccc21	8.3	3	2	5.9	1.3	-0.2	2	2	9%	0
Cc1ccc(NC(=O)c2ccc(OC(=O)COc3ccc(Cl)cc3C)cc2)cc1	2.8	12	9	-3.0	-1.6	-1.6	-31	-5	5%	-6
CCOCCCNC(=O)CCCOc1ccccc1	-4.5	/	/	/	/	-1.5	3	?	-6%	-1
COc1ccccc1C(=O)NCCC(=O)NNC(=O)c1ccccc1O	-2.3	-3	-3	-3.4	0.1	-0.7	-7	-9	-1%	-1
O=C(c1ccc(F)cc1)N1C2CCC1CC(O)(c1ccc(F)cc1)C2 (stereo unspecified)	2.6	/	/	/	/	0.3	-8	27	0%	-3
C/C(=N\NC(=O)c1cccc(C)c1)c1cccc(NC(=O)c2ccco2)c1	-2.7	/	/	/	/	0.5	-10	-2	-7%	/
Cc1ccc(C2CC(C(F)(F)F)n3nc(C(=O)NCCN4CCOCC4)cc3N2)cc1 (stereo unspecified)	2.7	/	/	/	/	1.2	3	-7	-5%	-1
CC1CC(C)CN(CCOCCSc2ccc(Cl)cc2)C1 (stereo unspecified)	-1.1	-18	-18	-3.0	3.0	1.0	41	-3	-2%	5
CCOc1ccc(-n2nc3c(=O)[nH]nc(C)c3c2C)cc1	-1.7	/	/	/	/	1.1	-7	-22	1%	5
Cc1cnnn1-c1cccc([N+](=O)[O-])c1	-2.3	10	4	-2.9	0.5	0.2	-1	-7	1%	-9
O=C(Nc1cccc(F)c1)NC1(C(=O)N2CCN3CCCC3C2)CCCCC1 (stereo unspecified)	-1.2	/	/	/	/	0.0	-17	-1	0%	-2
COc1ccc2c(c1)C(C)=CC(C)(C)N2C(=O)Nc1ccccc1	2.9	/	/	/	/	-0.5	25	6	1%	-5
Cc1cc2oc(=O)cc(CN(C)Cc3ccc(OC(F)F)cc3)c2cc1Cl	-1.3	7	4	-1.0	-5.6	0.2	21	-3	/	7
COc1cccc(-n2ccnc2SCC(=O)N2CCc3ccccc32)c1	?	/	/	/	/	-0.4	-10	1	4%	/

(list continues)
SMILES	RanGTP-Imp inh	Ecoli rRNA inh	Ecoli rRNA inh OD600	Ecoli rRNA inh RFP	AF4-AF9 inh	Bfl-1 A1 inh	T cruzi repl	Calb FLC	Vif TR-FRET	Beta apoptosis
NC(=O)COc1cccc2cccnc12	3.1	9	12	-1.8	-1.4	0.5	-11	-15	-1%	1
COc1ccc(NC(=O)CSc2ccc3nnc(-c4ccccn4)n3n2)c(OC)c1	?	-2	3	2.5	-2.5	-0.7	6	4	2%	2
Cc1ccccc1OCCSCc1nc2ccccc2[nH]1	0.2	-48	-53	-9.2	11	0.2	40	-1	/	3
O=C(Oc1ccc(-c2nnco2)cc1)N1CCCCC1	-0.2	/	/	/	/	0.3	1	-19	?	2
Cc1cc(NC(=O)CCN2CCN(Cc3ccccc3)CC2)ccc1Br	2.4	-9	-25	1.8	-1.1	-0.5	33	5	0%	-9
O=C(N=Nc1c(O)[nH]c2ccccc12)c1cccc(S(=O)(=O)N2CCCCC2)c1	2.8	6	-6	1.2	-4.3	0.4	13	11	1%	-9
CCCN(C(=O)Cc1csc(-c2ccccc2)n1)C1CCS(=O)(=O)C1 (stereo unspecified)	/	5	3	-1.8	0.8	-1.1	/	/	-7%	-6
Cc1cc(OCC(=O)Nc2ccc(CN3CCOCC3)cc2)ccc1Cl	4.7	14	19	2.0	1.1	-0.2	1	-2	/	-3
COc1ccc(C2/C(=C(/O)c3ccccc3)C(=O)C(=O)N2CO)cc1 (stereo unspecified)	0.6	/	/	/	/	0.7	-11	0	-1%	/
CC(C)(C)OC(=O)N/N=C/c1ccc(C(=O)O)cc1	5.9	/	/	/	/	0.8	4	-41	-3%	0
CC1CN(S(=O)(=O)c2cccc(C(=O)N3CCC(C(N)=O)CC3)c2)CC(C)O1 (stereo unspecified)	/	9	10	3.2	-7.1	0.3	/	/	0%	0
CCOc1ccc(S(=O)(=O)N2CCC(C(=O)OC(C)C(=O)N3CCOCC3)CC2)cc1 (stereo unspecified)	1.3	11	7	2.3	-2.7	0.2	2	4	-1%	-2
CC(Cc1cccnc1)NC(=O)c1cc(COc2c(F)cccc2F)on1 (stereo unspecified)	-0.4	-2	0	2.5	-0.1	0.8	11	-8	/	5
C=CCn1c(C)cc(C(=O)Cn2nc(C(=O)O)c3ccccc3c2=O)c1C	-2.4	6	9	4.5	-1.3	-2.1	-16	-6	10%	-2
CCCn1cc(NC(=O)c2cc(-c3ccccc3)on2)cn1	?	/	/	/	/	-0.4	-3	-1	9%	18
CCC1CCCCN1C(=O)CSc1nnc(-c2c[nH]c3ccccc23)o1 (stereo unspecified)	?	/	/	/	/	0.7	13	5	3%	-7
COc1ccc(CC(NC(C)=O)C(=O)NC2CCN(S(=O)(=O)c3ccccc3)CC2)c(OC)c1 (stereo unspecified)	-1.6	9	15	-0.3	-0.1	0.1	-6	4	3%	-3
COc1ccccc1N(CC(=O)NC1CCCC1)S(=O)(=O)c1ccc(C)cc1	0.0	-13	-26	-1.8	-0.8	1.2	12	6	/	-2
Cc1nn2cc(-c3ccc(Cl)cc3)cnc2c1Cl	0.8	17	21	3.5	2.2	-8.2	-4	-7	-3%	-2
CCCCC(=O)Nc1nc2ccc(C(=O)OC)cc2s1	-1.4	2	2	-3.0	-0.6	-1.7	48	-1	-6%	-4
CCC(C)c1ccccc1NC(=O)COC(=O)c1ccc(N2CCCC2)c([N+](=O)[O-])c1 (stereo unspecified)	?	/	/	/	1.5	-0.1	-1	3	4%	8
COc1ccc(C(=O)Nc2c3c(nn2C(C)(C)C)CS(=O)(=O)C3)cc1OC	2.0	11	11	-0.7	-4.9	-0.6	5	-5	/	0
c1cncc(-c2ccc3ncnc(NCc4cccs4)c3c2)c1	/	-20	-21	-3.8	0.1	2.5	/	/	/	-1
O=S(=O)(c1cc(Cl)ccc1Cl)N1CCNCC1	5.0	/	/	/	/	-0.5	-6	-12	-7%	4
C/C(=N\OC(=O)c1ccc(OC(C)C)cc1)c1ccc(C)c(C)c1	?	/	/	/	/	-0.4	-1	-7	-8%	-3

Other results follow.
SMILES	RanGTP-Imp inh	Ecoli rRNA inh	Ecoli rRNA inh OD600	Ecoli rRNA inh RFP	AF4-AF9 inh	Bfl-1 A1 inh	T cruzi repl	Calb FLC	Vif TR-FRET	Beta apoptosis
C/C(=N\NC(=O)c1ccc2c(c1)OCO2)c1ccc(O)cc1	-1.4	6	-11	-3.0	1.5	-2.8	-1	-2	/	-10
O=C(Nc1ccccc1N1CCCC1)c1ccc2c(c1)OCO2	-2.0	/	/	/	/	0.0	-10	-12	-1%	0
CCOC(=O)C1=C(SCC(=O)Nc2ccccc2)NC(=O)C(C#N)C12CCCCC2 (stereo unspecified)	1.5	/	/	/	/	-0.1	-5	-33	2%	-4
Cc1ccc(C(O)(CNCc2ccccc2)c2ccccc2)cc1 (stereo unspecified)	2.8	-3	5	3.1	-1.2	-0.8	9	-1	-3%	8
COCc1cc(C)nc(OCC(=O)N/N=C/c2ccco2)c1C#N	-0.5	/	/	/	/	0.8	5	0	-4%	/
CCOc1cc(C)c(Cl)cc1S(=O)(=O)NCc1ccco1	2.5	/	/	/	/	1.8	0	32	70%	-6
O=C(OCC(=O)N1CCN(C(=O)c2ccco2)CC1)c1ccc(S(=O)(=O)N2CCCCC2)cc1	-2.4	/	/	/	/	-1.3	-16	-1	-5%&-2%	-6
Cc1ccc(C(=O)N/C(=C\c2ccco2)C(=O)N2CC(C)OC(C)C2)cc1C (stereo unspecified)	/	7	4	4.8	0.3	1.5	/	14	8%	-5
COC(=O)CCc1sc(Nc2ccc(Br)cc2)nc1-c1ccc(OC)cc1	-0.9	-3	-21	8.1	3.7	-1.8	-5	-5	-1%	-9
O=C(CSCCc1ccccn1)Nc1cccnc1	6.1	/	/	/	/	-0.8	6	-1	3%	0
Cc1ccc(CSc2ncccc2C(=O)O)cc1	0.1	/	/	/	/	0.1	0	0	-3%	-4
CCOc1ccccc1CN1CCC(n2nccc2NC(=O)C2CCCC2)CC1	0.4	-2	5	-2.6	5.7	0.1	15	-31	0%	5
CC(=O)Oc1ccc(-c2cccc(C(=O)NCCCO)c2)cc1	-1.5	/	/	/	/	1.0	2	20	-6%	0
Cc1nn(-c2ccc(F)cc2)c(Cl)c1C(=O)NCC1CCCO1 (stereo unspecified)	/	7	8	-3.0	0.4	-0.3	/	/	-2%	2
O=[N+]([O-])c1cccc(N(CC(O)CN2CCCCC2)S(=O)(=O)c2ccccc2)c1 (stereo unspecified)	2.6	2	17	-0.5	-4.1	1.3	0	-2	/	-8
CC1(C)Oc2ccc(C(=O)NC3CCCC3)cc2N(CC(=O)N2CCOCC2)C1=O	-3.4	/	/	/	/	0.5	-3	5	>100µM*	-6
CCN1C(=O)/C(=C2\SC(=S)N(NC(=O)c3ccccc3O)C2=O)c2ccccc21	-1.4	3	3	-6.8	0.5	0.3	-11	7	-1%	-6

Assay outcomes deposited in PubChem by several laboratories.

These rows are one share of the data. The share of hits here may be higher or lower than overall.
